# High-throughput results: PubChem, several laboratories
# PMI activator: activators of human PMI, primary screen, biochemical, fluorescence intensity, near-Km mannose 6-phosphate; Mannose-6-phosphate isomerase (Homo sapiens), P34949; purified human PMI, coupled resazurin fluorescence, 20 min; stronger effect = higher value; 1 = vehicle control, 0 substrate-free wells; activation factor at 20 µM; 190,000 compounds, 0.005% hits;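 active = activation factor of 2 or more at 20 µM, relative to plate controls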
# Target sequence (P34949 whole entry, looked up): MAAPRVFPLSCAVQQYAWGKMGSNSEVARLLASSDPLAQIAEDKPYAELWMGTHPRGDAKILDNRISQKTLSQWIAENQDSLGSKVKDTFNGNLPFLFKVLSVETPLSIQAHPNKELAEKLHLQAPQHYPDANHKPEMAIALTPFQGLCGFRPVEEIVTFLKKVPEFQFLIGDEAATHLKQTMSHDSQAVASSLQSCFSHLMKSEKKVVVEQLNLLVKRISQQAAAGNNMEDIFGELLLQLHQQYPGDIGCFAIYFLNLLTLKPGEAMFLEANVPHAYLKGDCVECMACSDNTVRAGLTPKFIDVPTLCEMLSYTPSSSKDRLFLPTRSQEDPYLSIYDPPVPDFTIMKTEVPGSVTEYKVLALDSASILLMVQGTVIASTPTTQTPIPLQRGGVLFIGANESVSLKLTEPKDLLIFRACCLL
# Lmaj promast: Leishmania major promastigote growth inhibition, primary screen; AID 1063, 2008; Leishmania major promastigotes, resazurin fluorescence viability; inhibition, % at 10 µM; 200,000 compounds, 9% hits; in the data active = inhibition above about 50%;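 also: promastigotes grown with compound for 44 hours at 28 °C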
# PMI act hi M6P: human PMI activators, high substrate, primary screen, biochemical, fluorescence intensity, near-saturating mannose 6-phosphate | activation factor at 20 µM | 190,000 compounds, 0.34% hits | AID 1216, 2008 | Mannose-6-phosphate isomerase (Homo sapiens), P34949 | coupled PMI enzyme assay, resazurin fluorescence, 20 min; stronger effect = higher value; 1 = untreated enzyme, 0 = substrate-free blank;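 active = activation factor of 2 or more at 20 µM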
#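 Test system – human PMI in coupled enzyme assay · Timing – 20 min incubation at room temperature · Detection – Diaphorase-driven resazurin-to-resorufin fluorescence, excitation 544, emission 590 nm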
# Diaphorase act: compounds boosting diaphorase resazurin reduction – biochemical, uHTS, resorufin fluorescence, counter-screen for diaphorase-coupled primary assays, primary screen | Diaphorase/resazurin coupled assay, 16 min; stronger effect = higher value; 1 = vehicle wells, 0 = NADH-free wells | activation factor at 20 µM | 190,000 compounds, 0.005% hits;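 active = diaphorase activity raised at least twofold by the compound at 20 µM; inactive = activation factor below 2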
#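 Assay system: Purified diaphorase enzyme from Clostridium kluyveri | Amount: Enzyme 0.07 U/mL final | Dosing: Compound 20 µM once, DMSO 1% | Timing: 16 min reaction at room temperature | Detection: Fluorescence, excitation 544 nm and emission 590 nm | Evaluation: Higher resorufin formation from activation or reduction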
# Diaph inh CS: diaphorase inhibitors and chemical oxidizers, primary screen, counter-screen for diaphorase-coupled primary assays, biochemical, uHTS, resorufin fluorescence; AID 1217, 2008; inhibition, % at 20 µM; 190,000 compounds, 0.69% hits; diaphorase resazurin-to-resorufin fluorescence, NADH, 16 min; bacterial (C. kluyveri) enzyme, not human;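 active = primary screen inhibition at 20 µM above a set limit, cut at about 50% in these data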;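 also: plate controls were DMSO with full reaction for no effect and wells lacking NADH for full effect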
#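 Assay system: diaphorase enzyme from Clostridium kluyveri; Input: enzyme working solution with 0.14 U/mL diaphorase; Timing: 16 min at room temperature; Technique: resorufin fluorescence, excitation 544 nm, emission 590 nm; Benchmarks: positive control minus NADH, DMSO neutral control.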
# Active calls of the source: *. These rows are one share of the data, so the mix of outcomes need not match the whole.
# Preview:
SMILES,PMI activator,Lmaj promast,PMI act hi M6P,Diaphorase act,Diaph inh CS
N#Cc1ccc(C(=O)Nc2nc(SCc3ccc(Cl)cc3)n[nH]2)cc1,1.2,2,1,1.3,-29
CCn1ncc(/C=N\NC(=O)c2ccc3c(c2)c(C)c(C)n3Cc2ccccc2)c1C,0.9,12,0.9,0.9,12
O=C(Nc1ncn[nH]1)c1ccc(Cl)cc1Cl,1.1,-7,1,1,-4
Cc1cc(=O)[nH]c(-n2[nH]c(C)cc2=O)n1,1,-1,1,1,4
O=C(O)/C=C/c1ccc(O)c(O)c1,0.4,-5,0.8,0.5,46
CCCCCCCCCCSc1n[nH]c(NC(C)=O)n1,1,-8,1.1,1,1
COc1cc([C@@H]2c3cc4c(cc3[C@H](O)[C@H]3COC(=O)[C@H]23)OCO4)cc(OC)c1OC,1,8,1.1,0.9,6

# Main list, from the first entry:
SMILES,PMI activator,Lmaj promast,PMI act hi M6P,Diaphorase act,Diaph inh CS
N#Cc1ccc(C(=O)Nc2nc(SCc3ccc(Cl)cc3)n[nH]2)cc1,1.2,2,1,1.3,-29
CCn1ncc(/C=N\NC(=O)c2ccc3c(c2)c(C)c(C)n3Cc2ccccc2)c1C,0.9,12,0.9,0.9,12
O=C(Nc1ncn[nH]1)c1ccc(Cl)cc1Cl,1.1,-7,1,1,-4
Cc1cc(=O)[nH]c(-n2[nH]c(C)cc2=O)n1,1,-1,1,1,4
O=C(O)/C=C/c1ccc(O)c(O)c1,0.4,-5,0.8,0.5,46
CCCCCCCCCCSc1n[nH]c(NC(C)=O)n1,1,-8,1.1,1,1
COc1cc([C@@H]2c3cc4c(cc3[C@H](O)[C@H]3COC(=O)[C@H]23)OCO4)cc(OC)c1OC,1,8,1.1,0.9,6
CCOCCCNC(=O)CCC(=O)NNc1nc2ccccc2c2nc(C)nn12,0.4,-3,1,0.9,12
O=[N+]([O-])c1ccccc1Nc1ccccc1,1.1,1,1,1,2
O=C(COc1ccc2ccccc2c1Br)Nc1ncn[nH]1,0.9,-6,0.8,0.8,21
Cc1cc(C)cc(OCC(=O)NNC(=O)c2cc(C)[nH]n2)c1,1,-6,1,0.9,11
O=C(CCCCCN1C(=O)CCC1=O)Nc1ncn[nH]1,0.9,-3,1,0.8,15
C=C(CC)C(=O)c1ccc(OCC(=O)O)c(Cl)c1Cl,1.1,11,1.1,0.9,8
Cc1cc(C(=O)Nc2ncn[nH]2)ccc1[N+](=O)[O-],1,-2,0.9,0.8,19
CCc1ccc(OCC(=O)Nc2ncn[nH]2)cc1,0.9,1,1,1,0

# Reformatted: results already given
O=[N+]([O-])c1ccccc1Nc1ccccc1
  PMI activator: 1.1	Lmaj promast: 1	PMI act hi M6P: 1	Diaphorase act: 1	Diaph inh CS: 2
O=C(COc1ccc2ccccc2c1Br)Nc1ncn[nH]1
  PMI activator: 0.9	Lmaj promast: -6	PMI act hi M6P: 0.8	Diaphorase act: 0.8	Diaph inh CS: 21

# An excerpt of these results, bar-delimited:
Structure | PMI activator | Lmaj promast | PMI act hi M6P | Diaphorase act | Diaph inh CS
O=[N+]([O-])c1ccccc1Nc1ccccc1 | 1.1 | 1 | 1 | 1 | 2
O=C(COc1ccc2ccccc2c1Br)Nc1ncn[nH]1 | 0.9 | -6 | 0.8 | 0.8 | 21
